Assay outcomes as filed in PubChem.
Mtb H37Rv: Confirmatory growth inhibition assay against Mycobacterium tuberculosis H37Rv, potency (AID 1949) | one-dose inhibition, % at 10 µg/mL; IC50 in µg/mL for titrated hits | most inactive calls were filed without a number and no value below 0 was filed | 100,000 tested, 1.6% active;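 active means confirmed in a dose series; inconclusive means about 50% or more but not retested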;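 further: bacteria grown 7 days with compound before Alamar blue readout; 0% = untreated bacteria and 100% = reference antibiotic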
* marks the source's active call; other numbers are inactive results; i = inactive; ? = inconclusive. This is a subset; the hit share may differ from the screen's.

SMILES	Mtb H37Rv
O=C(c1cc(Cl)ccc1Cl)N1CCN(C(=O)c2cc(Cl)ccc2Cl)CC1	2.6%
CC1CCc2c(sc3ncnc(SCC(=O)OC4CCCCC4)c23)C1 (stereo not given)	i
O=C(CN1CCCCC1)Nc1ccc(Br)cc1[N+](=O)[O-]	i
COc1ccc(Cl)cc1C(=O)O/N=C(\N)c1ccc(Br)cc1	10.2%
O=S(=O)(Cc1ccccc1)Nc1ccc2c(c1)OCO2	i
O=S(=O)(NC1CCCCC1NS(=O)(=O)c1ccc(F)cc1)c1ccc(F)cc1 (stereo not given)	i
COc1ccc(-c2cc(C(=O)OCc3ccco3)c3ccccc3n2)cc1OC	i
CC(C)(C)NC(=O)c1cc2cc(Cl)cc(Cl)c2oc1=O	2.54µg/mL*
CCOc1ccc(NC(=O)CC2Nc3cc(C)c(C)cc3NC2=O)cc1 (stereo not given)	i
O=S(=O)(c1ccc(Cl)cc1)c1nc(-c2ccccc2Br)oc1N1CCOCC1	i

Single entries from the list:
Mtb H37Rv result of `O=C(c1cc(Cl)ccc1Cl)N1CCN(C(=O)c2cc(Cl)ccc2Cl)CC1` : 2.6%
Mtb H37Rv result of `CC(C)(C)NC(=O)c1cc2cc(Cl)cc(Cl)c2oc1=O` : 2.54µg/mL*

The main list resumes with the 3 entries that preceded the break.
SMILES	Mtb H37Rv
CC(C)(C)NC(=O)c1cc2cc(Cl)cc(Cl)c2oc1=O	2.54µg/mL*
CCOc1ccc(NC(=O)CC2Nc3cc(C)c(C)cc3NC2=O)cc1 (stereo not given)	i
O=S(=O)(c1ccc(Cl)cc1)c1nc(-c2ccccc2Br)oc1N1CCOCC1	i
COc1ccc(S(=O)(=O)N(CC(=O)Nc2cc([N+](=O)[O-])ccc2C)c2cc(C)cc(C)c2)cc1OC	i
O=[N+]([O-])c1ccc(N2CCN(S(=O)(=O)c3ccc(F)cc3)CC2)cc1N1CCCCC1	0.9%
CC1=C(C(N)=O)C(c2cccc(Br)c2)NC(=O)N1 (stereo not given)	i
O=C(C(Cc1ccccc1)N1C(=O)C2C3C=CC(C3)C2C1=O)N1CCOCC1 (stereo not given)	0.5%
COc1ccccc1NC(=O)c1sc2ncn(Cc3c(Cl)ccc(Cl)c3Cl)c(=O)c2c1C	i
COc1ccc2nc(Nc3nc(CSc4ccc(Cl)cc4)cc(=O)[nH]3)nc(C)c2c1	i
OC(COCC1COc2ccccc2O1)CN1CCN(c2ccccc2)CC1 (stereo not given)	i
O=C1NC(=O)C2C1C(c1ccc([N+](=O)[O-])cc1)NN2Cc1ccccc1 (stereo not given)	i
Cc1ccc(Cl)cc1N1CCN(C(=O)CN(c2ccc(F)cc2)S(C)(=O)=O)CC1	i
O=C(CNC(=O)c1cn(-c2ccccc2)nc1-c1ccccc1)c1ccccc1	i
CCOc1ccc(Oc2nc(NCC(C)C)nc(N(C)C)n2)nn1	0.1%
Cc1ccc(C)c(S(=O)(=O)Nc2nc(C)c(C(=O)Nc3ccccc3)s2)c1	i
O=CN1CCN(C(=O)COc2ccc(Br)cc2Cl)CC1	i
O=C1c2ccccc2S(=O)(=O)N1CC(O)Cn1c2ccccc2c2ccccc21 (stereo not given)	i
CCc1cccc(C)c1NC(=O)COc1ccc(S(=O)(=O)NC(C)c2ccccc2)cc1 (stereo not given)	i
COc1ccccc1OCCCCN1CCN(C(c2ccccc2)c2ccccc2)CC1	8.02µg/mL*
Cc1ccc(NC(=O)c2ccc(OC(=O)C3CCCCC3)cc2)cc1	i
Oc1ccccc1C1OC2CCCCC2C2=CCCCC21 (stereo not given)	0.5%
O=c1oc2ccccc2cc1-c1csc(-c2ccncc2)n1	i
O=C(c1ccccc1)c1ccccc1NS(=O)(=O)c1ccc(Cl)cc1	i
S=C(Nc1ccccc1Cl)N1CCCC1	i
O=C(Nc1cc(C(F)(F)F)ccc1N1CCOCC1)c1ccc2c(c1)OCO2	i
COc1c(C)cccc1C(=O)NC(=S)Nc1ccc(CN2CCOCC2)cc1	i
Cc1ccc(NC(=O)c2cnccn2)c(Br)c1	2.2%
Cc1ccc(C(=O)NC(=S)Nc2cc(C(=O)O)ccc2C)cc1Cl	i
COc1cc(OC)cc(C(=O)Nc2ccccc2SC)c1	i
CN(C(=O)c1ccco1)C1(C)CCS(=O)(=O)C1 (stereo not given)	i
CNC(=O)CSc1ccc(Cl)cc1	i
O=C(Nc1cccc([N+](=O)[O-])c1)c1ccc2nc(N3C(=O)CCC3=O)sc2c1	i
Cn1nc(-c2ccc(C(=O)N3CCCC3)cc2)c2ccccc2c1=O	6.4%
Cn1c(=O)c2cc(S(=O)(=O)N3CCC(c4ccccc4)CC3)ccc2n(C)c1=O	i
CC1CCc2nc(NC(=O)CSc3nnnn3-c3ccccc3)sc2C1 (stereo not given)	i
COc1cc([N+](=O)[O-])ccc1NC(=S)NCc1cccs1	1.7%
CCC(C)C(=O)Nc1nnc(CC(C)C)s1 (stereo not given)	i
COc1ccc(C(C)=O)cc1CSc1nc2cc(C)c(C)cc2[nH]1	i
O=C(c1cccc(F)c1)N1CCN(C(=O)c2ccccc2F)CC1	i
CCOC(=O)CNc1nc2ccccc2n2cnnc12	i
COC(=O)c1ccc(NC(=S)NCCc2ccccc2)cc1	2.0%
COC(=O)C1C(=O)NC(SCCc2ccccc2)=C(C#N)C1c1ccc(OC)cc1 (stereo not given)	i
COC(=O)c1cc(NC(=O)c2ccccc2OC)ccc1Cl	i
COc1ccc(C)cc1NC(=O)c1cccc([N+](=O)[O-])c1	i
CCOC(=O)C1=C(C)Nc2nnnn2C1c1cc(OC)c(OC)c(OC)c1 (stereo not given)	i
O=C(CSc1nc2ccccc2c(=O)n1-c1ccccc1)N1CCCCCC1	i
Cc1ccc(S(=O)(=O)N(CC(=O)NCC2CCCO2)c2cccc(C)c2C)cc1 (stereo not given)	i
CC(C)NC(=O)CSc1nc(N)c(-c2ccccc2)c(=O)[nH]1	i
Cc1ccc(NC(=O)OC(C)(C)C)cc1F	i
CCOc1ccc(NC(=S)Nc2ccc(OC)cc2)cc1	?
COc1cc(COc2cc3oc(=O)cc(C)c3cc2Cl)cc(OC)c1OC	i
CCCCNC(=S)Nc1cc(C)ccc1C	13.0%
COc1cc(CO)ccc1OCc1cccc(C(=O)O)c1	2.2%
(list continues)
SMILES	Mtb H37Rv
COC(=O)c1ccc(N2CCN(C)CC2)c(NC(=O)COc2ccc(Br)cc2)c1	i
COc1ccc(C(=O)CCC(=O)Nc2ccc(Cl)c(Cl)c2)cc1	i
Nc1cc(N)nc(SCc2cccnc2)n1	i
Cc1nnc(NC(=O)CSc2nnc(-c3ccc(Cl)cc3)n2C)s1	i
O=C(Nc1nncs1)c1ccccc1Oc1ccccc1	i
CCc1cc2c(=O)c(Oc3ccc(F)cc3)c(C)oc2cc1O	i
C=CCn1c(CNC(=O)c2ccc(OC)c(OC)c2)nnc1SCC(=O)Nc1sc2c(c1C#N)CCCC2	i
Cc1cnc(NC(=O)c2ccc(C)c([N+](=O)[O-])c2)s1	6.2%
COc1cc(NC(=O)c2cnn3c(C(F)F)cc(-c4ccccc4)nc23)c(OC)cc1Cl	i
NC(=O)CSc1nnc(-c2cc3ccccc3o2)n1Cc1ccccc1	i
COc1ccc(NC(=O)CSc2nc3ccccc3c(=O)n2Cc2ccco2)c(OC)c1	i
CNc1ccc(C(O)(C(F)(F)F)C(F)(F)F)cc1C(O)(C(F)(F)F)C(F)(F)F	i
Cc1ccc(S(=O)(=O)N2C(C)CCCC2C)c(C)c1C (stereo not given)	i
O=C(NCCNC(=O)c1ccccc1Cl)c1ccco1	i
CC1=C(C(=O)Nc2ccccc2)C(c2ccccc2OCc2ccc(C)cc2)NC(=S)N1 (stereo not given)	3.6%
C=CCNC(=S)NNC(=O)C(C)Oc1cccc(OC)c1 (stereo not given)	i
Cc1occc1C(=O)Nc1ccc(Cl)cc1	i
Cc1oc2cc(OCc3c(F)cccc3Cl)ccc2c(=O)c1-c1ccc2c(c1)OCCCO2	2.0%
CC(=O)c1cccc(NC(=O)c2ccc(-c3cccc([N+](=O)[O-])c3)o2)c1	i
CSc1ccccc1NC(=S)NCC1CCCO1 (stereo not given)	i

In the list so far, 2 have a COOH group:
SMILES	Mtb H37Rv
Cc1ccc(C(=O)NC(=S)Nc2cc(C(=O)O)ccc2C)cc1Cl	i
COc1cc(CO)ccc1OCc1cccc(C(=O)O)c1	2.2%

(list continues)
SMILES	Mtb H37Rv
O=C(O)CCN1C(=O)c2ccc(NC(=O)CCc3ccccc3)cc2C1=O	i
Cn1c(SCC(=O)N2c3ccccc3Sc3ccccc32)nnc1-c1ccccc1Cl	i
N#C/C(=C\c1ccc(Cl)c(Cl)c1)S(=O)(=O)c1ccccc1	i
COC1(OC)c2no[n+]([O-])c2CCC1O (stereo not given)	0.9%
O=C1CCCC(=O)C1C1c2ccccc2Sc2ccccc21	0.6%
CC(=O)Nc1ccc(S(=O)(=O)Nc2ccccc2C(=O)NCCc2ccccc2)cc1	i
CC(O)c1nc2ccccc2n1Cc1ccc(Cl)cc1 (stereo not given)	i
O=C(Nc1ccc(CCC(=O)N2CCCC2)cc1)c1ccccc1SCc1ccccc1	i
O=C(Nc1ccc(OC(F)F)cc1)c1sc2ccccc2c1Cl	i
Cc1cc(Cl)ccc1NC(=O)CN(c1cccc(Cl)c1)S(C)(=O)=O	i
Cc1nnc2c3c(-c4ccccc4)csc3ncn12	i
O=C1CC(N2CCN(Cc3ccc4c(c3)OCO4)CC2)C(=O)N1c1ccc(F)c(Cl)c1 (stereo not given)	i
COc1ccc(N2CCN(c3nc(NCCc4ccc(OC)c(OC)c4)nc(OC)n3)CC2)cc1	i
CN(CC(=O)NCCc1ccccc1)S(=O)(=O)c1ccc2ccccc2c1	i
Cc1ccc(NC(=O)c2ccc3ccccc3n2)cc1	i
O=S(=O)(NCCCN1CCOCC1)c1ccc(C2CCCCC2)cc1	i
C=CCn1c(SCc2ccccc2C#N)nnc1-c1ccccc1O	i
CCOc1c(O)ccc(C=O)c1[N+](=O)[O-]	i
O=C(c1cncc(Br)c1)N1CCN(Cc2ccccc2)CC1	i
CS(=O)(=O)N(CC(=O)N1CCCC1)c1cccc(Cl)c1	1.0%

Some of these compounds in order of molar mass, falling:
SMILES	Mtb H37Rv
O=C1CC(N2CCN(Cc3ccc4c(c3)OCO4)CC2)C(=O)N1c1ccc(F)c(Cl)c1 (stereo not given)	i
CN(CC(=O)NCCc1ccccc1)S(=O)(=O)c1ccc2ccccc2c1	i
O=S(=O)(NCCCN1CCOCC1)c1ccc(C2CCCCC2)cc1	i
C=CCn1c(SCc2ccccc2C#N)nnc1-c1ccccc1O	i
CS(=O)(=O)N(CC(=O)N1CCCC1)c1cccc(Cl)c1	1.0%
Cc1ccc(NC(=O)c2ccc3ccccc3n2)cc1	i
CCOc1c(O)ccc(C=O)c1[N+](=O)[O-]	i

Next part
SMILES	Mtb H37Rv
O=C(Cc1ccccc1)N1CCN(C(=O)c2ccc(F)cc2)CC1	i
CCOC(=O)CC(c1ccccc1)S(=O)(=O)O (stereo not given)	0.5%
COc1ccc(S(=O)(=O)Nc2sc3c(c2C(N)=O)CCCC3)cc1	i
O=C(COc1ccc2c(c1)OCO2)Nc1ccc2c(c1)oc1ccccc12	i
COc1ccc(C(=O)NCc2ccccc2)cc1OC	i
S=C(Nc1ccc(Oc2ccccc2)cc1)Nc1cccc2ccccc12	25.6%
O=C(Nc1cccc([N+](=O)[O-])c1)N1CCN(c2ccccc2F)CC1	i
O=C(NCCn1cccc1)c1cccc2ccccc12	0.7%
COc1cc(NC(=O)c2cccc(-c3cc4ccccc4oc3=O)c2)ccc1NC(=O)C(C)C	i
O=C(C1CCCO1)N1CCN(C(=S)NCc2ccco2)CC1 (stereo not given)	6.5%
CC(NCCC(c1ccc(F)cc1)c1ccco1)c1ccccc1 (stereo not given)	i
O=C(COc1ccc(F)cc1)Nc1ncccn1	i
Cc1ccc(CN(CC(=O)N2CCN(c3ccccc3F)CC2)S(=O)(=O)c2ccccc2)cc1	i
COc1cc2c(cc1OC)C(c1cccc(OCc3ccccc3)c1)CC(=O)N2 (stereo not given)	3.4%
COC(=O)C1(C#N)C(c2ccsc2)C(C(N)=O)N2C=C(C(C)=O)C=CC21 (stereo not given)	i
Cc1ccc(C(=O)Nc2ccc(C(F)(F)F)cc2)o1	3.5%
COc1ccc(N2CCN(C(=S)Nc3ccccc3)CC2)cc1	i
CC(CNC(=O)c1ccco1)NC(=O)c1ccco1 (stereo not given)	i
COc1cc(Cl)c(S(=O)(=O)NCc2ccccn2)cc1Cl	i
O=C(NCc1ccco1)c1ccc(-c2ccc([N+](=O)[O-])cc2Cl)o1	i
CCn1c(SCC(=O)N2CCN(c3ccc(Cl)cc3)CC2)nc2ccccc2c1=O	i
CN1C(=O)c2ccc(NC(=O)CN3C(=O)c4ccccc4S3(=O)=O)cc2C1=O	i
O=C1CC(c2ccc(OC(F)(F)F)cc2)c2ccc3ccccc3c2N1 (stereo not given)	2.7%
CCOc1ccc(C(=O)Nc2ccc(N3CCN(C(=O)c4cccs4)CC3)c(Cl)c2)cc1Br	0.53µg/mL*
Cc1ccc(SCc2ccc(C(=O)NCC3CCCO3)cc2)cc1 (stereo not given)	i
CCC1CCCCN1C(=O)c1ccc(Cl)c(F)c1F (stereo not given)	i
CCCNC(=O)CN(CC)S(=O)(=O)c1ccc(Cl)cc1	i
NS(=O)(=O)c1ccc(NC(=O)COc2ccc(Cl)cc2Br)cc1	i
C=CCNC1CC(=O)N(c2ccc(F)cc2)C1=O (stereo not given)	i
CC(SCc1ccccc1)C(=O)Nc1ccccc1Cl (stereo not given)	i
CCOC(=O)Nc1ccc(NC(=O)OCc2ccccc2)cc1	i
CC(=O)c1cccc(NC(=O)Nc2ccc(OC(F)F)cc2C)c1	i
CCn1c(CC(=O)Nc2ccccc2)nnc1SCc1ccc(Br)cc1	2.8%
Cc1cc(C)cc(NC(=S)N2CCN(C/C=C/c3ccccc3)CC2)c1	1.0%
Cc1ccc(CCC(=O)Nc2ccc(SC(F)F)cc2)o1	i
O=C(NCc1cccs1)c1ccc2c(=O)n(CCC3=CCCCC3)c(=S)[nH]c2c1	i
COC(=O)c1ccccc1NC(=O)CSc1nc(-c2ccc(OC)cc2)ccc1C#N	i
